Assay outcomes deposited in PubChem by Broad Institute.
Vaccinia stage = blocks a specific stage of Vaccinia orthopoxvirus infection, primary screen, cell-based, single point; 89,000 compounds, 0.01% hits; activity change (mCherry), % (concentration not given with the values); Vaccinia-infected cells, mCherry/Venus stage reporter fluorescence; stronger effect = lower value; some inactives read as strong as hits;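 active = mCherry past -33% and 40 or more points under the early reporter, replicates agreeing; inconclusive = past -33% without that gap or agreement; tested in A549 cells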;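 note: scaled between vehicle wells and reference inhibitor wells; 23 nL library stock went into each well; one replicate is shown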
Vaccinia stage Venus = second read-out of Vaccinia stage, no call of its own (marks repeat the call); activity change (Venus), %; measured here: Venus reporter, other viral stage;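 negative = less Venus signal; first of two replicates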
An asterisk follows results filed as active; & = joins results of further samples. An excerpt; the hit share may differ from the screen's.

For C[C@H](CO)N1C[C@H](C)[C@H](CN(C)S(=O)(=O)c2ccc(F)cc2)Oc2ccc(NC(=O)Cc3cn(C)c4ccccc34)cc2CC1=O the results were Vaccinia stage -25 and Vaccinia stage Venus -11.
For O=C(CN1CCOCC1)N1CCCCN2[C@H](CO)[C@@H](c3ccc(Br)cc3)[C@@H]2C1 the results were Vaccinia stage 19 and Vaccinia stage Venus 7.
Screening C[C@H](CO)N1C[C@H](C)[C@H](CN(C)CC2CCCCC2)Oc2ccc(NC(=O)Cc3cn(C)c4ccccc34)cc2CC1=O returned Vaccinia stage -24 and Vaccinia stage Venus -12.
COc1ccc(NC(=O)N2CC(=O)N3[C@@H](CO)[C@@H](c4ccc(-c5ccc(C)cc5)cc4)[C@@H]3C2)cc1 was read as Vaccinia stage -18 and Vaccinia stage Venus -15.
Screening Cc1ccc(S(=O)(=O)N(C)C[C@H]2Oc3ncc(-c4ccccc4)cc3C(=O)N([C@@H](C)CO)C[C@@H]2C)cc1 returned Vaccinia stage -18&-31 and Vaccinia stage Venus -17&-26.
Screening C[C@@H]1CCCCO[C@@H](CN(C)S(=O)(=O)c2cn(C)cn2)[C@H](C)CN([C@H](C)CO)C(=O)c2cc(N(C)C)ccc2O1 returned Vaccinia stage 6 and Vaccinia stage Venus 14.
CO[C@@H]1CN(C)C(=O)c2ccc(NC(=O)C3CCCCC3)cc2OC[C@H](C)NC[C@H]1C was read as Vaccinia stage 12 and Vaccinia stage Venus 20.
CC(C)C#Cc1ccc2c(c1)O[C@H](CN(C)S(C)(=O)=O)[C@H](C)CN([C@H](C)CO)S2(=O)=O was read as Vaccinia stage 5 and Vaccinia stage Venus -2.
O=C(C[C@@H]1C=C[C@@H](NC(=O)Nc2cc(F)ccc2F)[C@@H](CO)O1)NCc1ccc2c(c1)OCO2 was read as Vaccinia stage 8 and Vaccinia stage Venus 9.
`CC(C)C#Cc1ccc([C@H]2[C@H](CO)N3C(=O)CN(C(=O)C4CCCCC4)C[C@@H]23)cc1` gave Vaccinia stage -14 and Vaccinia stage Venus -15.
C[C@@H]1CN([C@@H](C)CO)S(=O)(=O)c2ccc(C#CC3CC3)cc2O[C@@H]1CN(C)C(=O)c1ccccn1 was read as Vaccinia stage -15 and Vaccinia stage Venus -10.
`C[C@H](CO)N1C[C@H](C)[C@H](CN(C)C(=O)CN(C)C)Oc2cc(-c3ccccc3)ccc2S1(=O)=O` gave Vaccinia stage 2 and Vaccinia stage Venus -7.
O=C(C[C@@H]1C[C@H]2c3cc(NC(=O)C4CCC4)ccc3O[C@H]2[C@H](CO)O1)NCC(F)(F)F was read as Vaccinia stage 9 and Vaccinia stage Venus 1.
O=C(NC1CCCC1)N[C@@H]1C=C[C@H](CC(=O)N2CCOCC2)O[C@H]1CO was read as Vaccinia stage -3 and Vaccinia stage Venus 8.
O=C(C1CC1)N1CC(=O)N2[C@@H](CO)[C@H](c3ccc(-c4ccccc4F)cc3)[C@@H]2C1 was read as Vaccinia stage -2 and Vaccinia stage Venus -4.
For Cc1ccc(-c2ccc([C@H]3[C@H]4CN(C(=O)Nc5cccc(F)c5)CC(=O)N4[C@H]3CO)cc2)cc1 the results were Vaccinia stage inconclusive.
Screening COc1cccc(-c2ccc(C3[C@@H]4CN(S(=O)(=O)c5ccccc5)C[C@H]3N4)cc2)c1 (stereo partly specified) returned Vaccinia stage inconclusive.
`COc1ccc(S(=O)(=O)Nc2ccc3c(c2)C(=O)N([C@H](C)CO)C[C@H](C)[C@@H](CN(C)S(=O)(=O)c2ccc(F)cc2)O3)cc1` gave Vaccinia stage 13 and Vaccinia stage Venus 4.
Screening C[C@H](CO)N1C[C@H](C)[C@@H](CN(C)C)Oc2ccc(NC(=O)CCCN(C)C)cc2CC1=O returned Vaccinia stage 8 and Vaccinia stage Venus 11.
Screening C[C@@H]1CN([C@H](C)CO)C(=O)c2cccc(NC(=O)C3CC3)c2O[C@H]1CN(C)S(=O)(=O)c1ccc(Cl)cc1 returned Vaccinia stage 4 and Vaccinia stage Venus 12.
For C[C@@H]1CN([C@H](C)CO)C(=O)Cc2cc(NC(=O)CCCCCC(=O)Nc3ccccc3N)ccc2O[C@H]1CN(C)S(=O)(=O)c1ccccc1 the results were Vaccinia stage 3 and Vaccinia stage Venus 1.
For CO[C@@H]1CN(C)C(=O)c2cc(NC(=O)C3CC3)ccc2OC[C@@H](C)N(CC2CC2)C[C@H]1C the results were Vaccinia stage 1 and Vaccinia stage Venus 3.
For CS(=O)(=O)N1[C@@H](C#N)[C@H](c2ccc(C#CC3CCCCC3)cc2)[C@@H]1CO the results were Vaccinia stage 5 and Vaccinia stage Venus -6.
For O=C(NCC[C@H]1CC[C@@H](NC(=O)C2CCC2)[C@H](CO)O1)c1cnccn1 the results were Vaccinia stage 11 and Vaccinia stage Venus 27.
Cc1ccccc1-c1ccc([C@H]2[C@H]3CN(C(=O)CN4CCOCC4)CCCCN3[C@H]2CO)cc1 was read as Vaccinia stage 3 and Vaccinia stage Venus -1.
`CO[C@H]1CN(C)C(=O)c2cc(NC(=O)C3CCCCC3)ccc2OC[C@H](C)N(Cc2cccnc2)C[C@H]1C` gave Vaccinia stage -10 and Vaccinia stage Venus -10.
Screening C[C@@H]1CN([C@H](C)CO)C(=O)CCCn2cc(nn2)CO[C@H]1CN(C)Cc1ccc2c(c1)OCCN2C returned Vaccinia stage 0 and Vaccinia stage Venus -2.
For CCCNC(=O)Nc1ccc2c(c1)C(=O)N(C)[C@H]1CC[C@@H](CC(=O)NCC3CCCCC3)O[C@H]1CO2 the results were Vaccinia stage 4 and Vaccinia stage Venus 7.
For C[C@@H]1CCCCO[C@H](CN(C)C(=O)Nc2ccc(F)cc2)[C@@H](C)CN([C@@H](C)CO)C(=O)c2cc(NS(C)(=O)=O)ccc2O1 the results were Vaccinia stage -5 and Vaccinia stage Venus -1.
`C[C@H]1CN([C@@H](C)CO)C(=O)c2cccc(NC(=O)Nc3ccccc3)c2O[C@H]1CN(C)CC1CCCCC1` gave Vaccinia stage -25 and Vaccinia stage Venus -11.
Screening CCCNC(=O)N1C[C@H](C)[C@@H](OC)CN(C)C(=O)c2ccc(NC(=O)CC)cc2OC[C@@H]1C returned Vaccinia stage 7 and Vaccinia stage Venus 0.
Screening Cn1cnc(S(=O)(=O)N2CCCCN3[C@H](CO)[C@@H](c4ccc(-c5ccccc5F)cc4)[C@@H]3C2)c1 returned Vaccinia stage -2 and Vaccinia stage Venus -5.
Screening C[C@H]1CCCCO[C@H](CN(C)S(=O)(=O)c2ccc(Cl)cc2)[C@@H](C)CN([C@@H](C)CO)C(=O)c2cc(NC(=O)Cc3ccccc3)ccc2O1 returned Vaccinia stage inconclusive.
`CCNC(=O)C[C@@H]1CC[C@@H]2[C@@H](COc3ccc(NC(=O)c4ccc5c(c4)OCO5)cc3C(=O)N2C)O1` gave Vaccinia stage 17 and Vaccinia stage Venus 7.
Screening COc1ccc(NC(=O)N(C)C[C@@H]2Oc3ccc(NC(=O)Cn4cnnn4)cc3CC(=O)N([C@H](C)CO)C[C@H]2C)cc1 returned Vaccinia stage 22 and Vaccinia stage Venus 23.
`C[C@@H]1CN([C@@H](C)CO)C(=O)Cc2cc(NC(=O)C3CCCCC3)ccc2O[C@H]1CN(C)S(=O)(=O)c1ccccc1` gave Vaccinia stage -20 and Vaccinia stage Venus -4.
COc1ccc(NC(=O)Nc2ccc3c(c2)C(=O)N([C@@H](C)CO)C[C@@H](C)[C@@H](CN(C)C(=O)NC2CCCCC2)O3)cc1 was read as Vaccinia stage -5 and Vaccinia stage Venus -1.
For COc1ccc(S(=O)(=O)N(C)C[C@H]2Oc3c(NC(=O)c4ccc(-c5nccs5)cc4)cccc3C(=O)N([C@@H](C)CO)C[C@@H]2C)cc1 the results were Vaccinia stage 4 and Vaccinia stage Venus -1.
`CC(C)NC(=O)N(C)C[C@H]1OCCCC[C@@H](C)Oc2ccc(NC(=O)Nc3ccc(C(F)(F)F)cc3)cc2C(=O)N([C@H](C)CO)C[C@@H]1C` gave Vaccinia stage -4 and Vaccinia stage Venus 7.
For Cc1noc(C)c1S(=O)(=O)Nc1cccc2c1O[C@@H](CN(C)Cc1ccc3c(c1)OCO3)[C@@H](C)CN([C@H](C)CO)C2=O the results were Vaccinia stage 9 and Vaccinia stage Venus 4.
For CN1C(=O)c2cc(NC(=O)c3cccs3)ccc2OC[C@H]2O[C@@H](CC(=O)N3CCCCC3)CC[C@@H]21 the results were Vaccinia stage -2 and Vaccinia stage Venus 3.
Screening C[C@@H]1CCCCO[C@H](CN(C)S(=O)(=O)c2cn(C)cn2)[C@@H](C)CN([C@H](C)CO)C(=O)c2cc(NC(=O)NC3CCCCC3)ccc2O1 returned Vaccinia stage 34 and Vaccinia stage Venus 17.
COc1ccc2c3c(n(C)c2c1)[C@H](CO)N(C(=O)C1CC1)CC31CCN(C(=O)c2ccncc2)CC1 was read as Vaccinia stage 8 and Vaccinia stage Venus -1.
For CC(=O)N(C)C[C@H]1Oc2ncc(C#C[C@H](C)O)cc2C(=O)N([C@H](C)CO)C[C@H]1C the results were Vaccinia stage 21 and Vaccinia stage Venus 2.
Screening O=C(C[C@@H]1CC[C@H]2[C@@H](COC[C@@H](O)CN2S(=O)(=O)c2ccccc2F)O1)NCc1ccccc1Cl returned Vaccinia stage -9 and Vaccinia stage Venus -13.
Screening C[C@@H]1CN([C@@H](C)CO)C(=O)Cc2cc(NS(=O)(=O)c3cccs3)ccc2O[C@@H]1CN(C)Cc1ccccc1 returned Vaccinia stage inconclusive.
Screening COc1cccc(S(=O)(=O)N(C)C[C@H]2Oc3cc(C4=CCCCC4)ccc3S(=O)(=O)N([C@@H](C)CO)C[C@@H]2C)c1 returned Vaccinia stage inconclusive.
Screening O=C(Nc1ccc2c(c1)[C@H]1C[C@H](CC(=O)N3CCOCC3)O[C@H](CO)[C@H]1O2)Nc1ccccc1F returned Vaccinia stage 8 and Vaccinia stage Venus 6.
For O=C(C[C@H]1C=C[C@H](NC(=O)c2ccncc2)[C@@H](CO)O1)NCCc1ccncc1 the results were Vaccinia stage -5 and Vaccinia stage Venus 0.
Screening C[C@H](O)C#Cc1ccc2c(c1)O[C@H](CN(C)Cc1cccnc1)[C@@H](C)CN([C@@H](C)CO)S2(=O)=O returned Vaccinia stage -15 and Vaccinia stage Venus -12.
Screening CO[C@@H]1CN(C)C(=O)c2cc(NC(=O)c3ccccc3F)ccc2OC[C@H](C)N(C(=O)c2ccccc2F)C[C@@H]1C returned Vaccinia stage -4 and Vaccinia stage Venus 1.
`O=C(C[C@@H]1C[C@@H]2c3cc(NC(=O)c4cccnc4)ccc3O[C@@H]2[C@@H](CO)O1)NC1CCCC1` gave Vaccinia stage 14 and Vaccinia stage Venus 11.
Screening C[C@@H]1CN([C@H](C)CO)S(=O)(=O)c2ccc(-c3ccc(C#N)cc3)cc2O[C@@H]1CN(C)C(=O)C1CC1 returned Vaccinia stage -3 and Vaccinia stage Venus -12.
COC(=O)[C@@H]1[C@@H](CO)[C@@H]2Cn3c(ccc(C4=CCCC4)c3=O)[C@@H]2N1CC1CCOCC1 was read as Vaccinia stage 13 and Vaccinia stage Venus 15.
`C[C@H]1CN([C@@H](C)CO)C(=O)c2cccc(NS(=O)(=O)c3cn(C)cn3)c2O[C@H]1CN(C)Cc1ccc(C(=O)O)cc1` gave Vaccinia stage 5 and Vaccinia stage Venus -1.
Screening Cc1ccc(S(=O)(=O)Nc2ccc3c(c2)C(=O)N([C@H](C)CO)C[C@@H](C)[C@H](CN(C)Cc2ccncc2)OCCCC[C@H](C)O3)cc1 returned Vaccinia stage -15 and Vaccinia stage Venus -11.
Screening C[C@@H]1CCCCO[C@H](CN(C)Cc2ccc(C(=O)Nc3ccccc3N)cc2)[C@@H](C)CN([C@H](C)CO)C(=O)c2cc(NS(=O)(=O)c3ccc(F)cc3)ccc2O1 returned Vaccinia stage 0 and Vaccinia stage Venus 11.
Screening CCC(=O)NC[C@@H]1[C@@H](c2ccc(C3=CCCC3)cc2)[C@@H](CO)N1C(C)=O returned Vaccinia stage 9 and Vaccinia stage Venus 7.
`CN1c2ccc(-c3ccccc3)cc2[C@H]2[C@H](CCN2C(=O)c2ccc(F)cc2)[C@H]1CO` gave Vaccinia stage inconclusive.
For CO[C@@H]1CN(C)C(=O)c2ccc(NC(=O)Nc3cccc(Cl)c3)cc2OC[C@H](C)N(C(=O)Nc2c(C)noc2C)C[C@H]1C the results were Vaccinia stage 17 and Vaccinia stage Venus 4.

In the list so far, these have an aryl methoxy group.
COc1ccc(NC(=O)N2CC(=O)N3[C@@H](CO)[C@@H](c4ccc(-c5ccc(C)cc5)cc4)[C@@H]3C2)cc1 was read as Vaccinia stage -18 and Vaccinia stage Venus -15.
Screening COc1cccc(-c2ccc(C3[C@@H]4CN(S(=O)(=O)c5ccccc5)C[C@H]3N4)cc2)c1 (stereo partly specified) returned Vaccinia stage inconclusive.
`COc1ccc(S(=O)(=O)Nc2ccc3c(c2)C(=O)N([C@H](C)CO)C[C@H](C)[C@@H](CN(C)S(=O)(=O)c2ccc(F)cc2)O3)cc1` gave Vaccinia stage 13 and Vaccinia stage Venus 4.
Screening COc1ccc(NC(=O)N(C)C[C@@H]2Oc3ccc(NC(=O)Cn4cnnn4)cc3CC(=O)N([C@H](C)CO)C[C@H]2C)cc1 returned Vaccinia stage 22 and Vaccinia stage Venus 23.
COc1ccc(NC(=O)Nc2ccc3c(c2)C(=O)N([C@@H](C)CO)C[C@@H](C)[C@@H](CN(C)C(=O)NC2CCCCC2)O3)cc1 was read as Vaccinia stage -5 and Vaccinia stage Venus -1.
For COc1ccc(S(=O)(=O)N(C)C[C@H]2Oc3c(NC(=O)c4ccc(-c5nccs5)cc4)cccc3C(=O)N([C@@H](C)CO)C[C@@H]2C)cc1 the results were Vaccinia stage 4 and Vaccinia stage Venus -1.
COc1ccc2c3c(n(C)c2c1)[C@H](CO)N(C(=O)C1CC1)CC31CCN(C(=O)c2ccncc2)CC1 was read as Vaccinia stage 8 and Vaccinia stage Venus -1.
Screening COc1cccc(S(=O)(=O)N(C)C[C@H]2Oc3cc(C4=CCCCC4)ccc3S(=O)(=O)N([C@@H](C)CO)C[C@@H]2C)c1 returned Vaccinia stage inconclusive.
